Screening results: PubChem, Southern Research Specialized Biocontainment Screening Center
Mtb betalactam = beta-lactam sensitization of Mtb H37Rv, H37Rv; inhibition, % at 25 µM; AID 434955, 2010; 330,000 compounds, 0.27% hits; M. tuberculosis H37Rv growth with meropenem, percent inhibition; hits of this screen are not shown here;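 active = about 74% or more and at least 40 points above the plate without the antibiotic, then above 30% in a dose series; inconclusive = first-round hits that could not be retested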;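 note: growth measured after seven days incubation then overnight dye step; 0% = bacteria only wells and 100% = bacteria with antibiotic; twin plates without the antibiotic show which effects depend on it; some results filed as inactive read as strong as hits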
Active calls of the source: *; u = inconclusive.

SMILES	Mtb betalactam
COc1ccc(C(=S)N2CCOCC2)cc1OS(=O)(=O)c1ccc(Br)cc1	u
C/C(=N\NC(=O)c1ccc(N)cc1)C1CC1	8.7
Cn1nnnc1SCC(=O)c1c(N)n(C2CC2)c(=O)[nH]c1=O	1.1
CCOC(=O)C(=O)Nc1nc(-c2ccc3c(c2)CCN3C(=O)C2CC2)c(C)s1	-2.1
O=C(CNC(=O)c1ccccc1F)NCc1ccncc1	-0.5
Cc1cc(Cl)ccc1OCC(=O)Nc1ccncc1	5.2
Cc1ccccc1NC(=O)COC(=O)[C@@H]1CCCN1C(=O)c1cccs1	-6.2
CCN(C(=O)COC(=O)c1ccc2c(c1)OCO2)c1ccccc1	8.7
CNc1snc(C)c1C(=O)OCC(=O)c1cc(F)ccc1OC	2.6
Cc1ccc(CNC(=O)c2cc(-c3ccccc3C)n(CC3CC(c4cccc([N+](=O)[O-])c4)=NO3)n2)cc1 (centres undefined)	-1.5
CCOc1ccc(NC(=O)CN(C)C(=O)c2ccccc2Cc2ccccc2)cc1OCC	-1.5
C[C@H](CO)N1C[C@H](C)[C@@H](CN(C)C(=O)Nc2ccccc2)Oc2c(NC(=O)Cc3ccccc3)cccc2C1=O	-3.4
C=CC[C@H](CC(=O)NCCO)C(=O)NC[C@H](OC(=O)[C@@H](CC=C)Cc1ccc(F)cc1)c1ccccc1	-3.6
C[C@H]1COC(=O)[C@@H](Cc2ccc(F)cc2)C/C=C\C[C@H](CC(=O)NCCO)C(=O)N1	-4.3
O=C(COc1ccccc1[N+](=O)[O-])NCC1COc2ccccc2O1 (centres undefined)	-9.9
COc1ccc2sc(-c3ccccc3OC)c(-c3ccc4c(c3)OCCO4)c2c1	12.0
O=C(NC1CCCCCCC1)c1ccc(F)c(S(=O)(=O)N2CCOCC2)c1	-2.6
Cn1c(CCNC(=O)c2ccccc2F)nnc1SCC(=O)Nc1nncs1	-3.7
C#CCOCCOCCOCCNc1nc(N2CCN(C(=O)C([C@@H](C)O)n3cc([C@@H](N)CCCCN)nn3)CC2)nc(N2CCN(C(=O)[C@H](CCC(=O)O)n3cc([C@@H](N)[C@H](C)CC)nn3)CC2)n1 (some centres undefined)	1.6
Cc1cc(C)cc(OCC(=O)OCC(=O)Nc2cc(S(=O)(=O)N3CCOCC3)ccc2Cl)c1	2.7
O=C(COc1ncnc2ccccc12)NC1CCCCC1	-1.3
CCN(C[C@H]1N[C@@](C)(C(=O)OC)[C@H]2C(=O)N(Cc3ccccc3)C(=O)[C@@H]12)C(=O)c1ccc(C)cc1	1.6
Cc1ccc(OCC(=O)N2CC(C)CC(C)C2)c([N+](=O)[O-])n1 (centres undefined)	-1.5
COC(=O)[C@H](CC(C)C)NS(=O)(=O)N(Cc1ccccc1)[C@@H](CC(C)C)C(=O)OC	-9.3
COc1cccc(-c2noc(C3CCCN(C(=O)c4ccc(F)cc4)C3)n2)c1 (centres undefined)	-1.6
COc1ccc(NC2CCCN(C(=O)CCn3cccn3)C2)cc1 (centres undefined)	-1.6
Cc1cccc(C(=O)OCC(=O)c2c(C)[nH]c3ccccc23)c1O	2.1
COc1cccc(CN2CC(C(=O)N3CCCCCC3)CCC2=O)c1 (centres undefined)	u
CCCN(Cc1nnc(-c2cccs2)o1)C(=O)CN1C(=O)NC2(CCC(C)CC2)C1=O (centres undefined)	-7.8
CC(C)N(C(=O)CSc1ccc(S(=O)(=O)N2CCCCC2)cn1)c1ccccc1	-0.6
CON(C)C(=O)CCN(C(=O)OC(C)(C)C)c1ccccc1	-3.0
N#Cc1ccc(OCC(=O)Nc2ccc(S(=O)(=O)N3CCOCC3)cc2)cc1	-0.3
CCN(C(=O)COC(=O)CC1CCCCC1)c1c(N)n(Cc2ccccc2)c(=O)[nH]c1=O	-5.5
Cc1nc(SC(C)C(=O)NCc2ccc3c(c2)OCO3)nc(C)c1C (centres undefined)	-0.3
O=C(OCC(=O)N1CCc2ccccc21)c1ccncc1	-1.5
CN1CCN(c2ccc(S(=O)(=O)N3CCOCC3)cc2NC(=O)CC(C)(C)C)CC1	-1.7
CSc1ncccc1C(=O)Nc1ccc2c(c1)OCO2	3.8
COc1ccc(C2CC(c3cccs3)=NN2C(=O)CCC(=O)O)cc1OC (centres undefined)	-10.1
C[C@H](CO)N1C[C@H](C)[C@@H](CN(C)Cc2ccc(-c3ccccc3)cc2)Oc2c(NS(=O)(=O)c3cccs3)cccc2C1=O	6.4
Cc1ccsc1C(=O)OCC(=O)Nc1nnc(-c2ccccc2)o1	85.1
Cc1ccc(C(=O)COC(=O)c2nc3nccc(C)n3n2)c(C)c1	2.6
O=C(CCCSc1ccccc1)Nc1ccc(Cl)c(S(=O)(=O)N2CCOCC2)c1	-6.5
CCN(C(=O)COc1ccc(N(C)S(=O)(=O)c2ccc(NC(C)=O)cc2)cc1)C1CCCCC1	4.0
CN(C(=O)c1ccc(NC(=O)C2CCCN(C(=O)OC(C)(C)C)C2)cc1)C1CCCC1 (centres undefined)	4.3
O=C(CN1C(=O)NC2(CCCCCC2)C1=O)c1ccc(Cl)cc1	0.2
COc1ccc(C(=O)Nc2c(C)cc(C)cc2C)cc1OC	-4.3
CN(CC(=O)Nc1cccc(F)c1)C(=O)c1ccc(S(=O)(=O)N2CCCC2)cc1	-2.8
O=C(Nc1ccncc1)C1CCN(S(=O)(=O)c2cccc(C(F)(F)F)c2)CC1	-14.1
COc1ccc(NC(=O)CCc2ccccc2)cc1S(=O)(=O)N1CCCCC1	-7.9
c1ccc(CCCCN2CCN=C2Nc2ccccc2)cc1	-1.3
Cc1nccn1CC(O)COc1ccc(Cl)cc1Cl (centres undefined)	-13.3
Cc1cc(C(=O)COC(=O)c2ccc(NC(=O)CC#N)cc2)c(C)n1CCc1ccc(F)cc1	67.6
O=C(Nc1ccccc1)c1nc[nH]c1C(=O)N1CCc2ccccc2C1	u
COCCN(CC(=O)Nc1ccccc1C(F)(F)F)C(=O)/C=C/c1cc(Cl)c2c(c1)OCO2	-2.6
CC1CCN(C(=O)c2ccc(CNS(=O)(=O)c3ccc(C(C)(C)C)cc3)cc2)CC1	5.7
O=C1CCN(Cc2ccccc2)C=C1c1ccc2ccccc2c1	-5.7
COc1cc(OC)cc(C(=O)NC(C(=O)NCc2ccccn2)C(C)C)c1 (centres undefined)	-1.2
O=C(CCNS(=O)(=O)c1ccccc1C(F)(F)F)Nc1ccncc1	-1.9
CCN(CC(=O)Nc1c(F)cccc1F)C(=O)c1ccc(OCc2c(C)noc2C)cc1	-5.1
Cc1ccc(C(=O)N(C)CCOc2ccccc2)cc1S(=O)(=O)N1CCOCC1	-4.4

Continuation.
SMILES	Mtb betalactam
COc1ccc([C@H]2CC(=O)C=C(c3ccccc3Oc3ccccc3)C2)cc1	7.9
CN(C(=O)COC(=O)C12CC3CC(CC(Cl)(C3)C1)C2)C1(C#N)CCCCC1	9.1
COc1ccc(NS(=O)(=O)c2ccc3oc(=O)ccc3c2)cc1	-0.5
Nc1nc(Oc2ccc(F)cc2)c(Br)c(=O)[nH]1	-4.7
O=C(NCc1ccccn1)c1cccc(S(=O)(=O)Nc2ccccc2Cl)c1	-7.0
Cc1cc(C(=O)COc2ccc(C#N)cc2)c(C)n1CC1CCCO1 (centres undefined)	-4.4
COc1ccc(S(=O)(=O)N2CCCCC2)cc1NC(=O)CCOc1cc(C)ccc1C	-1.3
CN(CC(=O)Nc1ccc(F)c(F)c1F)C(=O)C1=NN(c2ccccc2)C(=O)CC1	2.5
COc1cc(/C=C2\SC(=S)N(CCC(=O)Nc3cccc(O)c3)C2=O)cc(OC)c1OC	7.3
C[C@H]1CN([C@@H](C)CO)C(=O)c2cccc(NC(=O)C3CC3)c2O[C@H]1CN(C)Cc1ccncc1	-2.1
Cc1ccc([C@@H]2CC=C(C(=O)O)[C@H](c3ccccc3)N2S(=O)(=O)c2ccc(C)cc2)cc1	-3.2
CCOc1ccccc1NC(=O)c1sc2ncn(CC(=O)N3CCOCC3)c(=O)c2c1C	-7.0
COc1ccc(NC(=O)N(C)C[C@H]2Oc3c(NC(=O)Nc4ccc(C(F)(F)F)cc4)cccc3C(=O)N([C@H](C)CO)C[C@@H]2C)cc1	8.7
C[C@H](CO)N1C[C@H](C)[C@@H](CN(C)S(C)(=O)=O)Oc2ccc(NC(=O)CCC(F)(F)F)cc2C1=O	-4.0
O=C(COC(=O)/C=C/c1cc(Br)ccc1F)NC1CC1	-0.2

Grouped by structure: the entries above with an aryl thioether with sulfur outside any ring.
SMILES	Mtb betalactam
Cn1nnnc1SCC(=O)c1c(N)n(C2CC2)c(=O)[nH]c1=O	1.1
Cn1c(CCNC(=O)c2ccccc2F)nnc1SCC(=O)Nc1nncs1	-3.7
CC(C)N(C(=O)CSc1ccc(S(=O)(=O)N2CCCCC2)cn1)c1ccccc1	-0.6
Cc1nc(SC(C)C(=O)NCc2ccc3c(c2)OCO3)nc(C)c1C (centres undefined)	-0.3
CSc1ncccc1C(=O)Nc1ccc2c(c1)OCO2	3.8
O=C(CCCSc1ccccc1)Nc1ccc(Cl)c(S(=O)(=O)N2CCOCC2)c1	-6.5

Back to the main list, starting four compounds before the break.
SMILES	Mtb betalactam
CCOc1ccccc1NC(=O)c1sc2ncn(CC(=O)N3CCOCC3)c(=O)c2c1C	-7.0
COc1ccc(NC(=O)N(C)C[C@H]2Oc3c(NC(=O)Nc4ccc(C(F)(F)F)cc4)cccc3C(=O)N([C@H](C)CO)C[C@@H]2C)cc1	8.7
C[C@H](CO)N1C[C@H](C)[C@@H](CN(C)S(C)(=O)=O)Oc2ccc(NC(=O)CCC(F)(F)F)cc2C1=O	-4.0
O=C(COC(=O)/C=C/c1cc(Br)ccc1F)NC1CC1	-0.2
O=C(NC(=S)N1CCCC1)c1ccccc1	u
CC(C)COC(=O)N1CC(O)CC1C(=O)Nc1ccc2c(c1)OCO2 (centres undefined)	-2.5
CCCCN(C(=O)c1cc2ccccc2o1)c1c(N)n(CCCC)c(=O)[nH]c1=O	0.9
COC(=O)C1=C(c2ccc(Cl)c(C(F)(F)F)c2)C[C@@H]2CC[C@H]1N2C(=O)NC(C)C	-0.2
COC(=O)C1=C(c2cccc(C#N)c2)C[C@@H]2CC[C@H]1N2C(=O)NCCOc1ccc(OC)cc1	0.7
Cn1cnnc1SCC(=O)Nc1ccc(N2CCCCC2)cc1	-2.5
CC(C(=O)N1c2ccccc2CC1C)N1CCN(S(=O)(=O)c2ccccc2F)CC1 (centres undefined)	1.2
CC(NC(=O)C1CCN(C(=O)Nc2ccccc2)CC1)c1ccccc1Cl (centres undefined)	-7.4
CC(C)C[C@H](NC(=O)c1[nH]cnc1C(=O)N[C@@H](C)C(=O)OCc1ccccc1)C(=O)OCc1ccccc1	6.2
C[C@H](CO)N1C[C@H](C)[C@@H](CN(C)S(=O)(=O)c2cn(C)cn2)Oc2c(NS(=O)(=O)c3ccccc3)cccc2C1=O	-5.0
CC(=O)c1ccc(N2CCN(C(=O)c3ccc(C(=O)c4ccccc4)cc3)CC2)cc1	-6.0
Cc1cc(Br)cc(Cl)c1OCC(=O)N1CCN(C(=O)c2ccco2)CC1	-6.6
NC(=O)CSc1ccc(S(=O)(=O)N2CCCCC2)cn1	-1.4
O=C(COC(=O)c1ccc(Br)o1)Nc1cccc(S(=O)(=O)N2CCOCC2)c1	8.7
O=C(COC(=O)CNS(=O)(=O)c1cc(C(F)(F)F)ccc1Cl)NC1CC1	-0.3
O=C(CNC(=O)c1ccccc1F)OCn1nnc2ccccc2c1=O	-0.2
CC1(c2ccc(OC(F)F)cc2)NC(=O)N(CC(=O)NC2CCCC2)C1=O (centres undefined)	-1.5
CCOC(=O)c1c(C)[nH]c(C)c1C(=O)COC(=O)Cc1n[nH]c(=O)c2ccccc12	0.7
CNC[C@H]1Oc2ccc(NC(=O)C3CCCCC3)cc2CC(=O)N([C@H](C)CO)C[C@@H]1C	2.2
Cc1nc2ccccc2n1CC(=O)OCC(=O)N1CCC(C)CC1	-4.9
CCOc1ccc2oc(C(=O)N3CCCN(C)CC3)c(C)c2c1	6.4
Cc1ccc(NS(=O)(=O)c2ccc(C(=O)N3CCCCCC3)cc2)cc1	12.7
CCOc1ccc(N(CC(=O)NCc2ccco2)C(=O)CCC(=O)Nc2nccs2)cc1	-5.9
Cc1cc(Cl)cc(C)c1OCC(=O)NC1CCCCCC1	-1.8
COc1ccc([C@H]2CC(=O)C=C(c3cc(Br)ccc3OC)C2)cc1	39.3
COc1cccc(N2CCN(C(=O)c3cc(-c4ccccc4)nc4c3cnn4C(C)C)CC2)c1	8.0
O=C(COC(=O)c1ccccc1)NC1CCCCCC1	2.2
COCCCOc1cc(NCc2ccccc2)c2ncn(C(C)C)c2c1	22.5
C[C@H]1COC(=O)[C@@H](Cc2ccc(F)cc2)C/C=C\C[C@@H](CC(=O)N[C@@H](CO)Cc2ccccc2)C(=O)N1	-9.7
O=C(NNC(=O)C12CC3CC(CC(C3)C1)C2)c1ccccc1O	-8.7
O=C(CN1C(=O)NC(c2ccc(F)cc2)C1=O)NC1CCCCC1 (centres undefined)	-0.6
O=S(=O)(c1ccc2c(c1)OCCO2)C1CCC(S(=O)(=O)c2c(F)cccc2F)CC1 (centres undefined)	-2.4
Cc1c(C(=O)OCC(=O)N(C)Cc2ccccc2)oc2ccccc12	4.5
CC(=O)c1ccc(N2CCN(C(=O)c3cn(Cc4ccccc4)nc3-c3cccnc3)CC2)c(F)c1	8.2
Cc1ccc(S(=O)(=O)N2CCCCC2)cc1NC(=O)CSc1ncccn1	4.7
Cc1cccc(NC(=O)c2ccc(Cl)c(S(=O)(=O)N3CCc4ccccc43)c2)n1	42.8
O=[N+]([O-])c1ccccc1/C=C/c1ccc2ccccc2n1	4.0
CCN(CC)C(=O)c1ccc(CS(=O)(=O)c2ccc(Br)cc2)cc1	-0.5
Cc1cccc(NC(=O)C2CCN(C(=O)c3ccccc3C)CC2)n1	2.0
C=CCN1CCc2cc(O)c(O)cc2C(c2ccccc2)C1 (centres undefined)	3.3

Some of the compounds tested; the hit share may differ from the screen's.
